Sfp PPTase inh – inhibitors of Bacillus subtilis Sfp phosphopantetheinyl transferase. Potency, µM, without a hit: max response, negative = inhibition, usual class: inhibitors. Q9F4F7. actives 3.5% (n = 310,000). Biochemical Sfp PPTase activity, qHTS. AID 1490; active means well fitted inhibition curve with a large enough effect; inconclusive means small, poorly fitted or top-dose-only effect, or another doubt; inactive means no such curve, though single readings can be large or run the other way;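 further: the enzyme is Sfp with the accession as filed and its product quenches rhodamine fluorescence; 0% = enzyme reaction without inhibitor and -100% = no enzyme wells; top concentration of the series not given in the record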
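Reaction rates are the 30-min fluorescence difference (ex 525, em 598 nm) in wells containing 15 nM Sfp, 5 uM rhodamine-CoA and 12.5 uM BHQ-2-YbbR at pH 7.6 with 10 mM MgCl2.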
An asterisk follows results filed as active; ? = inconclusive; & = joins results of further samples; ! = a repeat was not active; [ ] = dose if it differs, or a comment. Potency means the concentration at half of the fitted maximal effect. The list is partial; count on the stated rates, not on these rows.

SMILES	Sfp PPTase inh
CCOc1nc2cccc(C(=O)O)c2n1Cc1ccc(-c2ccccc2-c2nn[nH]n2)cc1	5.2%
COc1ccc([C@@H]2CC(=O)c3c(O)cc(O[C@@H]4O[C@H](CO)[C@@H](O)[C@H](O)[C@H]4OC4O[C@@H](C)[C@H](O)[C@@H](O)[C@H]4O)cc3O2)cc1O (stereo partly specified)	-5.3%
CC(C)[C@H](NC(=O)[C@@H](Cc1c[nH]c2ccccc12)NC(=O)[C@H](Cc1ccc(O)cc1)NC(=O)[C@@H](N)CC(=O)O)C(=O)N[C@H](Cc1c[nH]c2ccccc12)C(=O)N[C@H](Cc1c[nH]c2ccccc12)C(=O)N[C@@H](CCCCN)C(N)=O	-14.0%
CC1NC(C(=O)O)Cc2c1[nH]c1ccccc21 (stereo unspecified)	-4.2%
CCOC(=O)C1OC1C(=O)NC(CC(C)C)C(=O)NCCC(C)C (stereo unspecified)	14.3%
CN(C)/C=N/c1c(C#N)cnn1-c1ccc(F)c(Cl)c1	2.9%
CCOC(=O)[C@@]12C[C@@H]1/C(=N/O)c1ccccc1O2	-0.8%
COc1cc2cc[n+]3cc4c(OC)c(OC)ccc4cc3c2cc1OC	29.1%
Cc1noc(C)c1-c1ccc2ncnc(NCc3ccc4c(c3)OCO4)c2c1	-9.8%
N[C@H](CSC(c1ccccc1)(c1ccccc1)c1ccccc1)C(=O)O	?
CC[C@H](C)[C@@H](NC(=O)O[C@@H]1C(=O)c2ccc(OC)cc2O[C@H]1c1cccc(C(F)(F)F)c1)C(=O)OC	2.3%
CCCCC/C=C\C/C=C\CCCCCCCC(N)=O	6.6%&1.4%&3.7%
O=C(O)Cc1ccc(OCCNC[C@H](O)c2ccccc2)cc1	9.0%
C[C@H]1COC(=O)[C@H]2CCCN2C(=O)[C@@H](C)COC(=O)[C@H]2CCCN2C1=O	-10.3%
C=CCOC(=O)N[C@H](c1cccc(C(F)(F)F)c1)C(C(C)=O)C(C)=O	-0.3%
CCN(CC)CCCC(C)n1c(-c2ccccc2)nc2c(N3CCOCC3)nc(C)nc21 (stereo unspecified)	22.1%
CO[C@@H]1COC(=O)C/C=C\[C@H](C)COC(=O)[C@H](Cc2ccccc2)NC(=O)C/C=C\[C@H]1C	6.7%
NCCC[C@@H](CC(=O)N[C@@H]1CCNC[C@H]1C(=O)N[C@H](CC(=O)N[C@@H](CCC(=O)O)CC(=O)O)Cc1ccccc1)NC(=O)C[C@H](Cc1ccccc1)NC(=O)[C@@H]1CCCC[C@H]1N	-3.9%
O=c1c(O)c(-c2ccc(O)c(O)c2)oc2c(OC[C@@H]3O[C@@H](O)[C@@H](O)[C@H](O)[C@H]3O)c(O)cc(O)c12	56.2µM*
COc1ccc(COC(=O)c2ccc3c(=O)n4c(nc3c2)CCC4)cc1F	-9.7%
CC(C)C[C@@H](CC(=O)N[C@@H](CCC(=O)O)CC(=O)O)NC(=O)[C@@H]1CCCC[C@H]1NC(=O)C[C@H](CCCN)NC(=O)C[C@H](Cc1ccccc1)NC(=O)[C@@H]1CNCC[C@H]1N	-9.0%
CCOC(=O)[C@]1(C(NC(=O)OC)c2ccccc2)CCCC1=O (stereo partly specified)	-6.6%
C=C1CCN(C(C)C(=O)OCc2ccc(C)cc2)S(=O)(=O)c2ccccc21 (stereo unspecified)	1.1%
CCC(=O)N[C@@H]1Cc2ccccc2[C@@H](c2ccccc2)C1	11.7%
COc1ccc(-c2oc3cc(OC)c(OC(C)=O)c(OC)c3c(=O)c2OC)cc1OC(C)=O	9.8%

A draw from above in order of number of heavy atoms, smallest number first:
SMILES	Sfp PPTase inh
CCCCC/C=C\C/C=C\CCCCCCCC(N)=O	6.6%&1.4%&3.7%
CCOC(=O)[C@]1(C(NC(=O)OC)c2ccccc2)CCCC1=O (stereo partly specified)	-6.6%
C=CCOC(=O)N[C@H](c1cccc(C(F)(F)F)c1)C(C(C)=O)C(C)=O	-0.3%
C=C1CCN(C(C)C(=O)OCc2ccc(C)cc2)S(=O)(=O)c2ccccc21 (stereo unspecified)	1.1%
CC(C)[C@H](NC(=O)[C@@H](Cc1c[nH]c2ccccc12)NC(=O)[C@H](Cc1ccc(O)cc1)NC(=O)[C@@H](N)CC(=O)O)C(=O)N[C@H](Cc1c[nH]c2ccccc12)C(=O)N[C@H](Cc1c[nH]c2ccccc12)C(=O)N[C@@H](CCCCN)C(N)=O	-14.0%

Further entries
SMILES	Sfp PPTase inh
COc1ccc(O[C@H]2C=C[C@@H](c3ccccc3)O[C@H]2COC(=O)CC/C(C)=N\O[C@@H](C)c2cn([C@H]3COC[C@H]3O)nn2)cc1	-8.2%
C=C1CCN(C(CC(C)C)C(=O)N2CCOCC2)S(=O)(=O)c2ccccc21 (stereo unspecified)	-9.9%
COc1ccc(/C=C/C(=O)c2ccc(C)s2)cc1	?
O=C1OC(C2=CCCCC2)=NC12CC2	14.3%
Cc1cc(=O)[nH]c2c(C)c(Cl)ccc12	5.5%
CC1(C)CC[C@]2(C(=O)O)CC[C@@]3(C)C(=CCC4[C@@]5(C)CCC(O)C(C)(C)C5CC[C@@]43C)C2C1 (stereo partly specified)	16.8%
Cc1c(C)c2c(c(C)c1O)CC[C@@](C)(CCC[C@@H](C)CCC[C@@H](C)CCCC(C)C)O2	16.7%&-30.0%
COc1ccc(O[C@H]2C=C[C@@H](c3ccccc3)O[C@H]2COC(=O)CC/C(C)=N\OC[C@@H](O)COCc2ccco2)cc1	8.5%
COc1cc(COc2cc(N)c(Cl)cc2C(=O)CCC2CCN(CCNS(C)(=O)=O)CC2)cc(OC)c1	?
O=C(O)c1ccccc1-c1c2ccc(=O)cc-2oc2cc(O)ccc12	0.8%&1.3%
CC[C@H](C)[C@H](NC(=O)[C@@H]1CCCN1C(=O)[C@H](Cc1cnc[nH]1)NC(=O)[C@@H](NC(=O)[C@H](Cc1ccc(O)cc1)NC(=O)[C@@H](NC(=O)[C@H](CCCN=C(N)N)NC(=O)CNC)C(C)C)[C@@H](C)CC)C(=O)O	23.8%
CN=C(NC#N)NCCSCc1csc(N=C(N)N)n1	-29.9%&-8.5%
COc1ccc2c(c1)C(c1ccc(C)cc1)CC(=O)O2 (stereo unspecified)	12.0%
CC1(C(=O)O)NCCc2cc(O)c(O)cc21 (stereo unspecified)	56.2µM*
COc1cc(O)c2c(=O)cc(C)oc2c1CC=C(C)C	?
COC(=O)CC1Oc2cc3oc4c5ccccc5oc(=O)c4c3cc2O1 (stereo unspecified)	4.9%
CC(=O)c1ccc(-c2cc(C3C4C=CCC(C)C4C(=O)N3Cc3ccccc3)ccc2F)cc1 (stereo unspecified)	-16.3%
CCCCCCCCCCCCCCOS(=O)(=O)O	14.3%
CC(=O)OC[C@@H]1O[C@H](CCO/N=C(\C)CCN2CCc3nc(-c4ccccc4)c(-c4ccccc4)cc3C2)C=C[C@@H]1OC(C)=O	-1.9%
COc1cc2c(Cc3c4c5c(cc(OC)c(OC)c5c5c(OC)c(OC)ccc35)CCN4C)c3c4c(cc(OC)c(OC)c4c2cc1OC)CCN3C	-27.3%
COC(=O)[C@@]1(Cc2ccccc2)[C@H]2c3cc(C(=O)N(C)C)n(Cc4cc(C)n(C)n4)c3C[C@H]2CN1C(=O)c1ccccc1	9.6%
O=P(O)(O)C(O)c1ccc2ccccc2c1 (stereo unspecified)	4.6%
c1ccc2c(c1)CC(N1CCN(c3cccc4c3OCCO4)CC1)C2	-8.4%
C=CCOC(=O)N[C@H](C[N+](=O)[O-])c1ccccc1	9.4%
CC1Cc2c(-c3ccccc3)nc3c(c2CO1)CN(CCOc1ccccc1)CC3 (stereo unspecified)	3.6%
Further compounds
SMILES	Sfp PPTase inh
O=C(O)c1ccc2c(c1)C(=O)N([C@H](Cc1ccccc1)C(=O)O)C2=O	-1.6%
C/C(CCN1CCCc2nc(C)c(C)cc21)=N\O[C@@H](C)CN1CCCCc2nc(C)c(C)cc21	7.3%
Cc1nc(N2CCOCC2)c2nc(-c3ccccc3)n(CCN3CCCCC3)c2n1	27.0%
C/C(CCN1CCCCc2nc(C)c(C)cc21)=N\O[C@@H](C)c1cn([C@@H]2COC[C@@H]2O)nn1	5.2%
O=C1c2ccccc2C(=O)c2cc(S(=O)(=O)Nc3cccc4cccnc34)ccc21	7.4%
CCCn1c(-c2ccc(F)cc2)nc2c(NCC3CCN(C)CC3)nc(C)nc21	13.5%
Cc1cc(=O)oc2cc(NC(=O)[C@H](CCCCN)NC(=O)[C@H](CC3CCCCC3)NC(=O)OCC3c4ccccc4-c4ccccc43)ccc12	?
CCC(C)CCCCC(=O)NC(CCN)C(=O)NC(C(=O)NC(CCN)C(=O)NC1CCNC(=O)C(C(C)O)NC(=O)C(CCN)NC(=O)C(CCN)NC(=O)C(CC(C)C)NC(=O)C(Cc2ccccc2)NC(=O)C(CCN)NC1=O)C(C)O (stereo unspecified)	28.2µM*
CC(C)(O)[C@@H]1CCC[N+]2(C)CCCC[C@H]12 (stereo partly specified)	6.5%
CNC1C(O)C(OC2C(N)CC(N)C(OC3OC(CN)=CCC3N)C2O)OCC1(C)O (stereo unspecified)	14.2%
CCCCCCCCCCCCCC(=O)N[C@H](C)[C@@H](O)c1ccccc1	14.2%&-8.6%
c1ccc2cc(C3=NCCN3)ncc2c1	-29.1%
CCCC[C@H](CC)CN1CN(C[C@@H](CC)CCCC)CC(C)(N)C1	9.7%
COc1cc2c(C=O)c3c4c(cc(OC)c(OC)c4c2cc1OC)CCN3C	-19.4%
CC1(C)C(=O)C(c2ccccc2)=C2CN3C(=O)N(CCc4ccccc4)C(=O)C3(Cc3ccccc3)C=C21 (stereo unspecified)	8.0%
C=C(C)C(=O)C1CCCCC1	-12.2%
Cc1ccccc1CNc1ncnc2c1ncn2C1OC(CO)C(O)C1O (stereo unspecified)	14.6%
COc1cccc([C@@H]2Oc3ccc(Br)cc3C[C@H]2OC(=O)Nc2ccc(C)c(Br)c2)c1	-13.7%
O=C(O)C1CC(CCCP(=O)(O)O)CCN1 (stereo unspecified)	-1.2%
COc1cc2ncc(-c3ccccc3)nc2cc1OC	26.4%&14.8%
O=C(Nc1ccccc1)[C@@]12C[C@@H]1/C(=N/O)c1ccccc1O2	-22.9%
NC(Cc1cc(I)c(Oc2cc(I)c(O)c(I)c2)c(I)c1)C(=O)O (stereo unspecified)	-1.6%
C=NCc1cc2c(OC[C@@H](O)CNC(C)(C)C)cccc2[nH]1	30.9%[activator]
Cc1cc(C(=O)O)sc1C(N)C(=O)O (stereo unspecified)	6.2%
O=c1c(-c2ccc(O[C@@H]3O[C@H](CO)[C@@H](O)[C@H](O)[C@H]3O)cc2)coc2cc(O)cc(O)c12	26.7%
Further results follow:
SMILES	Sfp PPTase inh
COC(=O)C1=C(C)N(Cc2ccccc2)C2=C3C(=O)CCCC3[C@@](O)(C(=O)OC)C(=O)N2C1c1ccccc1 (stereo partly specified)	7.9%
NNc1nncc2ccccc12	5.01µM*!
O=C1OC2C[C@H]1[C@@H]1C(=O)N(Cc3ccccc3)CCC1C2I (stereo partly specified)	10.9%
COCCN1C(=O)N[C@@H](CCc2ccccc2)C(C(=O)OC)=C1C	-5.6%
CC(CCC(=O)O)C1CCC2C3CC[C@H]4CC(O)CC[C@@]4(C)C3C=C[C@]12C (stereo partly specified)	-18.8%
COc1ccc2c(c1)O[C@@H](c1ccc3c(c1)OCO3)[C@H](O)C2=O	-4.2%
CC[C@H](C)[C@H](NC(=O)[C@H](Cc1ccc(O)cc1)NC(=O)[C@@H](NC(=O)[C@H](CCCN=C(N)N)NC(=O)[C@@H](N)CC(=O)O)C(C)C)C(=O)N[C@@H](Cc1cnc[nH]1)C(=O)N1CCC[C@H]1C(=O)O	-2.6%
O=C(O)C[C@@H]1NC(=O)[C@H](Cc2ccccc2)NC1=O	-3.2%
CCCC(=O)Nc1nc2c(ncn2[C@@H]2O[C@H]3COP(=O)(O)O[C@@H]3[C@@H]2OC(=O)CCC)c(=O)[nH]1	6.3%&9.8%
Cc1cn(C2CC3OCC(NC(=O)C(Cc4ccccc4)NC(=O)OC(C)(C)C)C3O2)c(=O)[nH]c1=O (stereo unspecified)	7.7%
O=c1ncccn1[C@@H]1O[C@H](CO)C(O)[C@@H]1O (stereo partly specified)	-2.7%
COC(=O)[C@@H](NC(=O)O[C@H]1C(=O)c2cc(OC)ccc2O[C@@H]1c1ccc(OC)c(Br)c1)C(C)C	-5.0%
CCOC(=O)N/N=C1/C[C@@H](O)[C@@H](O)[C@@H]2[C@@H]3C(=O)N(C(C)(C)C)C(=O)[C@H]3CC[C@H]12	-6.7%
CC[C@@H](c1ccccc1)n1c(=O)n2n(c1=O)[C@H]1[C@H](O)[C@H]3O[C@@H]3/C(=N/OCc3ccccc3)[C@@H]1CC2	0.5%
CC(N)CCCC(C)(C)O (stereo unspecified)	-85.0%
O=C(N[C@H]1CCCc2ccccc21)O[C@@H]1C(=O)c2cc(Br)ccc2O[C@H]1c1ccc2c(c1)OCO2	-18.4%
CC(=O)OC1C[C@]2(C)[C@@H](CC(O)C3[C@]4(C)CCC(O)C(C)[C@@H]4CC[C@]32C)/C1=C(/CCC=C(C)C)C(=O)O (stereo partly specified)	14.8%
O=c1cc(-c2cccc(-c3ccc(C(F)(F)F)cc3)c2)c2cc3c(cc2o1)OCO3	-19.1%
COC(=O)[C@@]1(Cc2ccc(F)cc2)[C@H]2c3cc(C(=O)N4CCCC4)n(Cc4ccccn4)c3C[C@H]2CN1C(=O)c1ccccc1	-2.0%
C=Cc1c(C)/c2[n-]/c1=C\c1[n-]c(c(CC)c1C)/C=c1\[n-]c3c(c1C)C(=O)C(C(=O)[O-])C=3c1[n-]c(c(C)c1CCC(=O)[O-])\C=2.[Cu].[Na+].[Na+] (stereo unspecified)	44.7µM*

Filtered by structure: the entries above containing a thiophene ring, fused or not
SMILES	Sfp PPTase inh
COc1ccc(/C=C/C(=O)c2ccc(C)s2)cc1	?
Cc1cc(C(=O)O)sc1C(N)C(=O)O (stereo unspecified)	6.2%

Compound activity (PubChem BioAssay)
